High-throughput results: PubChem, National Center for Advancing Translational Sciences (NCATS)
TRPV1 PAM: HTS Assay for Compounds that Act as Potentiators of the Vanilloid Receptor 1; AID 540277, 2011; potentiation, % at 8.33 µM; Transient receptor potential cation channel subfamily V member 1 (Homo sapiens), Q8NER1; TRPV1-expressing cells, Fluo-8 calcium influx, capsaicin EC20 potentiation; host cell line not named in the record; control for the full effect not named in the record; 320,000 compounds, 0.02% hits; active means potentiation above 80%; inconclusive means 30% to 80%; inactive means below 30%; note: 0% is about no effect
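Fluo-8 calcium influx in TRPV1-expressing cells, kinetic read (ex 480/em 520 nm). Compound added and read 3 min for agonist activity, followed by capsaicin at EC20 final and 2 min further read for enhancement.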
Menin-MLL FL inh: qHTS Assay for Inhibitors Targeting the Menin-MLL Interaction in MLL Related Leukemias: Competition With Fluorescein Labeled MLL-derived Peptide | Fluorescence polarization, fluorescein-MLL peptide displacement from menin | AID 1766, 2009 | 290,000 tested, under 10 active | FP activity change, % at 61.4 µM; inconclusive = falling polarisation curve, or a change in total fluorescence; inactive = total fluorescence flat and polarisation flat or rising; no compound was filed as active; the % refers to the polarisation; negative = inhibition;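 note: % of control where 0% means no effect; inhibitors lower the polarisation; unlabelled MLL peptide was the positive control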
Sfp PPTase inh: qHTS Assay for Inhibitors of Bacillus subtilis Sfp phosphopantetheinyl transferase (PPTase) | Biochemical Sfp PPTase activity, qHTS | Potency, µM, inactives show max response, negative = inhibition, actives largely listed as inhibitors | 310,000 compounds, 3.5% hits | AID 1490, 2009; active = well fitted inhibition curve with a large enough effect; inconclusive = small, poorly fitted or top-dose-only effect, or another doubt; inactive = no such curve, though single readings can be large or run the other way;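 note: the enzyme is Sfp with the accession as filed and its product quenches rhodamine fluorescence; potency is the fitted concentration of half-maximal effect; 0% = enzyme reaction without inhibitor and -100% = no enzyme wells; top concentration of the series not given in the record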
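After 15 min at room temperature with compound, 15 nM Sfp received 5 uM rhodamine-CoA plus 12.5 uM BHQ-2-ybbR (50 mM Hepes pH 7.6, 10 mM MgCl2). Rate came from the fluorescence difference over 30 min, ex 525/em 598 nm.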
ClpP mod: qHTS Assay for Activators of ClpP. Potency, µM (top dose mostly 57.5 µM), inactives show at the top dose activity change, negative = active. AID 651965, 2013. 340,000 compounds, 1.9% hits. ATP-dependent Clp protease proteolytic subunit (Bacillus subtilis (strain 168)), P80244. purified B. subtilis ClpP, FRET peptide cleavage, 20 min; active = well fitted falling curve with a large enough effect; inconclusive = small, poorly fitted or top-dose-only effect; inactive = no such curve, though single readings can be large or run the other way; note: potency is the fitted concentration of half-maximal effect; the source files actives as falling curves though it sought activators and does not explain the sign; nearly all actives have a fitted effect of over 65% in size; many hits overshoot -100%
Target sequence (P80244 whole entry, looked up): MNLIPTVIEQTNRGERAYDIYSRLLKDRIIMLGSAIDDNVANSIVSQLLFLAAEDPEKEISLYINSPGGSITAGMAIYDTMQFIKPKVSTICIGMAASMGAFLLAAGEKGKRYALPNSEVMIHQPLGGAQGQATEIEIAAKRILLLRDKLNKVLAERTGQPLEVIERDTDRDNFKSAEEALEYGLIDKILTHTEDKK
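FRET quenching reversal measured ClpP activation: 10 microg/mL B. subtilis ClpP at pH 8 with the FRET-FV decapeptide, read at 430 nm after 320 nm excitation. The 20-min minus 0-min signal was scaled between DMSO/no-enzyme wells and ADEP (5.8 microM final).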
TRPML1 agonist: qHTS for Agonists of the Human Mucolipin Transient Receptor Potential 1 (TRPML1); Mucolipin-1 (Homo sapiens), Q9GZU1; activation, % (no concentration beside the values); 410,000 compounds, 0.12% hits; TRPML1-expressing cells, Ca2+ dye fluorescence, FDSS; host cell line not named in the record; reference of the full effect not given here; AID 624414, 2012; in the data active = activation above about 50%; inconclusive = about 30% to 50%; inactive = below about 30%; note: 0% is about no effect; the text of the record puts the active cut at 80%
Target sequence (Q9GZU1 whole entry, looked up): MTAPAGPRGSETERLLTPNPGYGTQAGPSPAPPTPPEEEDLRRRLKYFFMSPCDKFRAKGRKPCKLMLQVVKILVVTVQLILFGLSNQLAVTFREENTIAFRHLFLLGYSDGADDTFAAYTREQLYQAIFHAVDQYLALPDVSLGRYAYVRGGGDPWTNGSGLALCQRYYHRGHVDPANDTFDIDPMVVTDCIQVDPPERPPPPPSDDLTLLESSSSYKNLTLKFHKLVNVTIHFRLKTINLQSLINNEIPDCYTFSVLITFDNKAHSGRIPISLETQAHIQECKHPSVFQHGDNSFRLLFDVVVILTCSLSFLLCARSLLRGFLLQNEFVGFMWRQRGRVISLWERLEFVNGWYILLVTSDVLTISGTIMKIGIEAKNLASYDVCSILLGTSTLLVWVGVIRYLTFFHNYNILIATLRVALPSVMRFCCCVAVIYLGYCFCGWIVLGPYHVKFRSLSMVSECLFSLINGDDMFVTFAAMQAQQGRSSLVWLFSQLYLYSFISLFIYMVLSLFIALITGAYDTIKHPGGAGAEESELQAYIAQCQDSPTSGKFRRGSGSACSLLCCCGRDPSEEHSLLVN
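Calcium fluorescence on an FDSS kinetic reader gave the read-out. Tet-induced TRPML1-DL cells were plated overnight, dye-loaded (Ca8 with quencher, 45-90 min, room temperature, dark), then read 110 s after compound addition, and again 110 s after 4uM final 54-4 (EC80).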
PINK1 modulator: A Quantitative High throughput Screen to Identify Chemical Modulators of PINK1 Expression; 410,000 compounds, 0.2% hits; AID 624263, 2012; Potency, µM (highest dose often 76.6 µM), for the others: top-dose activation (PINK1 increase), actives largely listed as activators; PINK1 immunofluorescence, high-content cytometry, 24 h; active = well fitted activation curve with a large enough effect; inconclusive = small, poorly fitted or top-dose-only effect; inactive = flat fitted curve, though single readings scatter; cell line not stated here;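 note: potency is the fitted concentration of half-maximal effect; % of control where 0% means no effect; nearly all actives have a fitted effect of over 65% in size; a mitochondrial uncoupler was the plate control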
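Compound titrations (5 concentrations, 24 h) on a stable cell line; DMSO and CCCP controls. Endpoint: fixed-cell PINK1 immunofluorescence with mitochondrial, cell and nuclear markers, scanned by microplate cytometer.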
TRPML1 blocker: qHTS for Inhibitors of the Human Mucolipin Transient Receptor Potential 1 (TRPML1); Mucolipin-1 (Homo sapiens), Q9GZU1; TRPML1-inducible cells, Ca2+ dye fluorescence, FDSS; active compounds read low; inhibition of EC80 agonist-evoked calcium signal; activity change, negative = inhibition, % (no concentration beside the values); 390,000 compounds, 0.02% hits; AID 624415, 2012; in the data active means activity change below about -50%; inconclusive means about -30% to -50%; inactive means above about -30%;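 note: stimulus is agonist 54-4 at its EC80 concentration; % is set by controls: 0 for no effect and ±100 for the full control effect; compound concentration not given in the record; the text of the record puts the active cut at -80%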
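Tet-induced TRPML1-DL cells loaded with Ca8 no-wash calcium dye were read kinetically on FDSS. Compound addition was followed by EC80 agonist 54-4 (4 uM final); inhibition was read over 110 s.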
The depositor's hits bear a star; ? = inconclusive; . = not tested or not shown; & = joins results of further samples; [ ] = another dose, or the depositor's remark.

SMILES	TRPV1 PAM	Menin-MLL FL inh	Sfp PPTase inh	ClpP mod	TRPML1 agonist	PINK1 modulator	TRPML1 blocker
COc1ccc(-n2c(/C=C/c3c(C)[nH]c4ccccc34)nc3ccccc3c2=O)cc1	.	.	.	-4.5%	0.1	13%	-2
Cc1cc(C)nc(/N=c2/ssnc2Cl)c1	-1	0.2	20µM*	-1.3%	0.1	0.5%	-15
CCOC(=O)CCNc1n[nH]c(=O)[nH]c1=O	-2	0.2	23%	-2.4%	0.3	3.5%	12
O=C(OCC(=O)N1CCOCC1)c1ccc2ccccc2c1O	-20	.	.	28µM*	-0.7	0.3%	-10
O=C(NCc1ccccc1)c1c[nH]c2ccc(F)cc2c1=O	23	6.0	0%	-2.7%	0.5	3.0%	-2
CCOc1ccc(NC(=O)CSc2oc(-c3ccc(F)cc3)nc2S(=O)(=O)c2ccc(C)cc2)cc1	.	.	.	-0.3%	0.7	-0.4%	7
C=CCSc1nnc(NC(=O)c2ccc(Cl)nc2)s1	1	-1.9	12%	-5.3%	2.0	0.4%	-15
CN(C)CCNC(=O)c1cc(Sc2ccc(F)cc2)nc2ccccc12	-3	0.3	6%	.	.	.	.
O=S(=O)(NCC(c1ccco1)N1CCN(c2ccc(F)cc2)CC1)c1ccccc1 (stereo not given)	.	.	.	-0.9%	0.1	1.4%	0
CCC(=O)N1CCc2cc(Br)cc(S(=O)(=O)CCC(=O)NCc3ccc(Cl)cc3)c21	.	.	.	1.0%	-0.5	-1.2%	8
CCc1cc(C(=O)OCC(=O)N2CCC(c3ccccc3)=N2)sc1C	-4	.	-12%	-13%	-0.1	1.7%	20
O=c1c(Cl)c(N/N=C/c2ccc(Br)cc2)cnn1-c1ccccc1	-15	2.4	-9%	?	-0.8	1.3%	0
Cn1c(=O)n(C)c2cc(/C=C3/SC(=O)N(CC(=O)N4CCOCC4)C3=O)ccc21	1	4.6	31%[activator]	1.6%	-0.6	1.9%	6
CN(C)S(=O)(=O)c1cccc(NC(=O)COc2ccccc2C(=O)Nc2ccccc2)c1	.	.	.	-14%	0.1	5.5%	-6
CC(C)Cc1nc2sc3c(=O)[nH]cnc3c2c2c1CCCC2	10	-4.0	5%	.	1.1	8.2%	18
CCc1n[n+](CC(=O)c2ccccc2)c(N)s1	-5	-0.3	?	.	0.4	1.8%	-7
Cc1cc2oc(=O)c(CC(=O)O)c(C)c2c2occ(-c3ccc(F)cc3)c12	.	.	.	28µM*	0.4	-1.0%	6
CCOC(=O)c1ccc(NC(=O)Nn2cnnc2)cc1	-13	-0.7	-2%	-0.9%	0.1	-1.6%	11
Cc1oc2ncn(C)c(=O)c2c1C(=O)N1CCN(c2cccc(C(F)(F)F)c2)CC1	.	.	.	-4.0%	-0.1	-0.1%	3
O=C(c1cc(=O)c2ccccc2o1)N1CCN(c2cccc(Cl)c2)CC1	2	0.1	11%	.	-0.8	3.4%	-7
CC(=O)NC1(C(F)(F)F)C(=O)N(Cc2ccccc2)C2=C1C(=O)CC(C)(C)C2 (stereo not given)	17	2.5	17%	0.8%	-0.4	.	-3
CCCCCN1C(=O)Cn2c(nc3ccccc3c2=O)C1C (stereo not given)	-8	0.9	26%	1.5%	-0.5	0.3%	-18
C[C@@]12C(=O)N(Cc3ccccc3)CC(=O)N1[C@H](/C=C/c1ccccc1)[C@@H]1C(=O)N(c3ccccc3)C(=O)[C@@H]12	-10	-0.3	8%	0.9%	0.1	0.0%	-4
O=C1CC2C(=O)NCCN2C(=NC(=O)c2ccc(Cl)cc2)N1 (stereo not given)	-2	-2.9	12%	.	0.2	3.2%	4
CCCCC(=O)Nc1ccc2c(c1)nc(CCN1CCN(c3ccccn3)CC1)n2C	0	4.1	7%	-2.9%	1.9	-0.6%	7

Three entries already listed, sorted by length of the SMILES, high to low.
SMILES	TRPV1 PAM	Menin-MLL FL inh	Sfp PPTase inh	ClpP mod	TRPML1 agonist	PINK1 modulator	TRPML1 blocker
Cc1oc2ncn(C)c(=O)c2c1C(=O)N1CCN(c2cccc(C(F)(F)F)c2)CC1	.	.	.	-4.0%	-0.1	-0.1%	3
CCc1cc(C(=O)OCC(=O)N2CCC(c3ccccc3)=N2)sc1C	-4	.	-12%	-13%	-0.1	1.7%	20
CCc1n[n+](CC(=O)c2ccccc2)c(N)s1	-5	-0.3	?	.	0.4	1.8%	-7

Pulled by compound from the entries so far:
SMILES	TRPV1 PAM	Menin-MLL FL inh	Sfp PPTase inh	ClpP mod	TRPML1 agonist	PINK1 modulator	TRPML1 blocker
CCOC(=O)c1ccc(NC(=O)Nn2cnnc2)cc1	-13	-0.7	-2%	-0.9%	0.1	-1.6%	11
O=C(OCC(=O)N1CCOCC1)c1ccc2ccccc2c1O	-20	.	.	28µM*	-0.7	0.3%	-10
O=S(=O)(NCC(c1ccco1)N1CCN(c2ccc(F)cc2)CC1)c1ccccc1 (stereo not given)	.	.	.	-0.9%	0.1	1.4%	0
CC(=O)NC1(C(F)(F)F)C(=O)N(Cc2ccccc2)C2=C1C(=O)CC(C)(C)C2 (stereo not given)	17	2.5	17%	0.8%	-0.4	.	-3
CCOc1ccc(NC(=O)CSc2oc(-c3ccc(F)cc3)nc2S(=O)(=O)c2ccc(C)cc2)cc1	.	.	.	-0.3%	0.7	-0.4%	7

The results go on:
SMILES	TRPV1 PAM	Menin-MLL FL inh	Sfp PPTase inh	ClpP mod	TRPML1 agonist	PINK1 modulator	TRPML1 blocker
CC1(C(=O)NS(=O)(=O)c2ccc(F)cc2F)CCN1C(=O)CCc1ccccc1 (stereo not given)	.	.	.	0.0%	-0.2	1.3%	-9
COc1ccc2cc(CCNC(=O)C3CCCC3)c(=O)[nH]c2c1	3	2.0	5%	4.8%	-0.9	0.6%	-8
CN(C)CC/C=C1\c2ccccc2CSc2ccccc21	8	-3.4[24.8 µM]	-6%	0.4%	0.8	2.4%	5
Oc1c(Cl)cc(Cl)c(Cl)c1Cc1c(O)c(Cl)cc(Cl)c1Cl	-7	-2.8&-0.1&1.3	-7%&8%&-16%	-0.9%	-0.9	2.8µM*	22
CCOC(=O)c1c(/N=C/C2=C(O)CC(C)(C)CC2=O)sc(C)c1C	17	0.9	-2%	1.3%	-0.9	4.9%	3
CN(C)c1ccc(NC(=O)CSc2nc3c(c(=O)[nH]2)CCCC3)cc1	15	0.8	2%	0.5%	0.6	4.5%[38.3 µM]	-8
COc1ccccc1CNC(=O)Cc1csc2nc(-c3ccc(F)cc3)cn12	.	.	.	1.0%	0.7	2.1%	-19
O=C(CSc1ncnc2sccc12)Nc1ccc(S(=O)(=O)N2CCOCC2)cc1	4	.	.	-2.4%	-0.1	-1.3%	9
O=C(CCSCc1cccc(Cl)c1)NCCC1=CCCCC1	-11	-0.6	-4%	1.2%	0.4	-0.7%	-11
COc1ccc(S(=O)(=O)N(C)c2ccc(C(=O)N3CCCCC3)cc2)cc1OC	-1	7.8	11%	.	1.0	0.4%	7
O=C(NN1CCOCC1)c1ccc(Cl)c([N+](=O)[O-])c1	1	-4.4	-2%	-0.7%	-0.4	-1.2%	-2
Cc1cc(NC(=O)c2noc3c2CCCC3)no1	-16	-1.0	9%	-0.6%	-0.4	11%[38.3 µM]	-13
C#CCOCCOCCOCCNc1nc(N2CCN(C(=O)Cn3cc(CCCCN)nn3)CC2)nc(N2CCN(C(=O)Cn3cc(CCCCN)nn3)CC2)n1	7	-0.9	2%	1.1%	-0.6	-1.4%	-10
COc1ccc(S(=O)(=O)N2CCN(C(=O)c3c(-c4ccccc4)noc3C)CC2)cc1	9	0.2	6%	-2.0%	0.0	-1.4%	8
Cc1cc(F)ccc1-c1cc(C(=O)NCc2ccc(C(F)(F)F)cc2)[nH]n1	.	.	.	0.0%	15	?	.
Cc1cc(C)c(C(=O)COC(=O)c2c(C)noc2C)cc1C	-2	.	.	-1.6%	2.3	2.0%	-3
CCOC(=O)C1=C(O)/C(=C/c2cc(OC)c(OC)c(OC)c2)N=C1C	8	?	89µM*	-3.7%	-0.5	2.0%	-5
COC(=O)c1cn(CCOc2ccccc2)c2ccccc12	-5	0.6	-9%	-1.1%	2.1	0.1%	33
COc1ccc(CNC(=O)CS(=O)Cc2nc(-c3ccccc3C)oc2C)cc1 (stereo not given)	-3	3.6	-5%	-2.4%	0.4	0.1%	10
O=C(Nc1cccc2ccccc12)c1cc2c(cc1Br)OCO2	-16	7.1	15%	0.6%	-0.1	1.1%	-5
COc1ccc(NC(=O)c2ccc(S(=O)(=O)N3CCCCCC3)cc2)c(OC)c1	-6	1.0	18%	.	2.2	2.7%	-9
Nc1cc(=O)[nH]c(SCC(=O)Nc2ccc(N3CCOCC3)cc2)n1	.	.	.	0.1%	-1.3	2.1%	-12
COC(=O)c1ccc(C2c3c(oc4ccc(Cl)cc4c3=O)C(=O)N2CCN2CCOCC2)cc1 (stereo not given)	13	9.7	-29%	.	-0.8	2.5%	0
Cn1c(=O)n(C)c2cc(NC(=O)CSc3ccccc3)ccc21	-5	.	9%	-3.5%	0.2	-1.2%	9
CC(=O)N1CCc2c(sc(NC(=O)Cc3ccc(F)cc3)c2C(N)=O)C1	3	0.8	16%	-1.3%	0.5	0.6%	-11
Cc1ccc(Cl)cc1N(C)C(=O)c1cn(C2CCCCC2)c(=O)c2c1c1ccccc1n2C	.	.	.	-24%	-0.4	3.4%	22
CCS(=O)(=O)C(=C(Nc1ccc(OC)cc1)Nc1ccc(OC)cc1)S(=O)(=O)CC	8	-1.1	5%	-0.2%	3.4	0.9%	27
